# Compound activity: PubChem BioAssay, National Center for Advancing Translational Sciences (NCATS)
# TSHR agonist – qHTS Assay for Agonists of the Thyroid Stimulating Hormone Receptor. Thyrotropin receptor (Homo sapiens), P16473. HEK293-CNG-TSHR cells (CNG channel as cAMP sensor), membrane potential dye, cAMP. Potency, µM (doses to about 57.1 µM), for the others: top-dose activation, usual class: activators. actives 0.48% (n = 73,000). AID 926, 2007; active = well fitted activation curve of enough size with the parental cells flat; inconclusive = any curve in the parental cells; inactive = parental cells flat and receptor cells flat or falling; note: potency is the fitted concentration of half-maximal effect; % of control where 0% means no effect; weak receptor curves with flat parental cells got no call and are not listed
# Target sequence (P16473 whole entry, looked up): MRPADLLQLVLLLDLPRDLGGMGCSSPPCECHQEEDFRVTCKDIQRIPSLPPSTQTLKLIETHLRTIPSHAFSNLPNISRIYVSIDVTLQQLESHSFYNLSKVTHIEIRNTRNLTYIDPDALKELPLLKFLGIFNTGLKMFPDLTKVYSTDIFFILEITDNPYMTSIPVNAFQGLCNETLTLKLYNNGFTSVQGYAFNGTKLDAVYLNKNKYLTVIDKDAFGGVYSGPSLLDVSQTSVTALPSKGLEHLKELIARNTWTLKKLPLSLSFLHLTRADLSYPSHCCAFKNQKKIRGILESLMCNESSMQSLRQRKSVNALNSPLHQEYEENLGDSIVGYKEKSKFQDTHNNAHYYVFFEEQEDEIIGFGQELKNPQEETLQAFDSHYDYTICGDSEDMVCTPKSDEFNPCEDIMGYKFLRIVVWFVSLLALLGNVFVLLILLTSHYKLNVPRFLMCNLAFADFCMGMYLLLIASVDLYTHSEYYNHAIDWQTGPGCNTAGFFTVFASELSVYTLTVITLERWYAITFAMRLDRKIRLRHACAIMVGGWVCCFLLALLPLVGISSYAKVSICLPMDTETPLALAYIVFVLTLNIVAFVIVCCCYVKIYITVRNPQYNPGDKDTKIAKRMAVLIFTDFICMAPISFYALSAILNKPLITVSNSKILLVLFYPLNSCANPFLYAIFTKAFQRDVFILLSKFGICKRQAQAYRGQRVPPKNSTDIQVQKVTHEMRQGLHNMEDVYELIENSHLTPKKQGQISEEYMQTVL
#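 HEK 293 cells stably expressing TSHR and a modified CNG channel, with CNG-only parental cells as counterscreen, were preloaded 60 min at room temperature with membrane potential dye containing 100 uM RO 20-1724. Compound exposure was 30 min, and depolarization was read as fluorescence at 590 nm.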
# Resorufin fluor – qHTS Assay for Spectroscopic Profiling in Resorufin Spectral Region | AID 588, 2007 | Compound fluorescence, resorufin region 547/598 nm, buffer; active compounds read high | actives 0.04% (n = 59,000) | max dye-equivalent concentration, M; active = above 10 nM dye equivalent; inconclusive = 1 to 10 nM; inactive = 1 nM or less; a few of its hits are not listed in these tables; note: highest value over a series up to 38 µM
#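 Dye-equivalent concentration values derive from comparing each well's 547/598 nm fluorescence against resorufin standards included on every plate. Incubation was 15 min at room temperature in 100 mM Tris, pH 8.0.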
# A488 fluor – qHTS Assay for Spectroscopic Profiling in A488 Spectral Region; compound autofluorescence, A488 spectral region, dye equivalency; active compounds read high; max dye equivalency, M; actives 0.1% (n = 59,000); AID 591, 2007; active = above 10 nM dye equivalent; inconclusive = 1 to 10 nM; inactive = 1 nM or less; about half of its hits are not listed in these tables;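 note: highest value over a series up to 38 µM; compound alone in buffer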
#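 Intrinsic compound fluorescence is measured in 100 mM Tris buffer at pH 8.0 following 15 min incubation at room temperature. Intensities at 480 nm excitation/540 nm emission are calibrated to an on-plate A488 concentration series, giving dye-equivalent concentrations.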
# A647 fluor – qHTS Assay for Spectroscopic Profiling in A647 Spectral Region; Compound fluorescence, A647 channel (570/671 nm), Tris buffer; max dye-equivalent concentration, M; 59,000 tested, under 10 active; AID 592, 2007; active means above 1 µM dye equivalent; inconclusive means 0.1 to 1 µM; inactive means 0.1 µM or less;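 note: values scaled relative to a standard on each plate; highest value over a series up to 38 µM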
#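 Buffer was dispensed, compounds and Alexa 647 standards were pin-transferred, and plates sat 15 min at room temperature. Intensity at 570/671 nm was then converted to dye-equivalent concentration using the plate's A647 standard curve.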
# AID923 – qHTS Assay for Allosteric/Competitive Inhibitors of Caspase-1: Spectroscopic Profiling in AFC Spectral Region. actives 1.1% (n = 75,000). Potency, µM (series often up to 57.5 µM), for inactives: at the highest dose fluorescence increase, hits mostly activators. compound fluorescence, AFC spectral region (405/520 nm); almost no hit is shown here; active = well fitted activation curve with a large enough effect; inconclusive = small, poorly fitted or top-dose-only effect;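 note: potency is the fitted concentration of half-maximal effect; 0% is about no effect; scaled to a free AFC standard on each plate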
#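 Compound autofluorescence profiled at 405 nm ex/520 nm em during kinetic caspase 1 run (50 nM enzyme, 5 uM Ac-WEHD-AFC, HEPES pH 7.5, 10 mM DTT). Titration up to 57 uM; baseline from regression intercept, normalized to AFC standard curve.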
# * hit, by the source's call; i = inactive; ? = inconclusive; . = no result given; & = joins results of further samples; [ ] = dose if it differs, or a comment.
mol	TSHR agonist	Resorufin fluor	A488 fluor	A647 fluor	AID923
COc1ccc(S(=O)(=O)N2CCc3ccccc32)cc1C(=O)OCc1nnc(-c2ccccc2)o1	15%	i	i	4.2e-08	-1.2%
O=C(CNC(=O)c1ccccc1)NC1(C(=O)NC2CCCC2)CCCCC1	-1%	i	i	4.8e-08	-0.5%
Cc1onc(-c2ccccc2)c1C(=O)Nc1cc(C(F)(F)F)ccc1N1CCOCC1	?	i	i	1e-09	0.8%
COc1ccc(N2CCN(C(CNC(=O)C3CCCCC3)c3cccnc3)CC2)cc1 (stereo not drawn)	-6%	i	i	3.4e-08	-0.7%
O=C(Nc1nc(-c2ccc3c(c2)OCO3)cs1)c1ccncc1	?	i	i	2.1e-09	-0.1%
Cc1ccc(C)n1-n1c(C)nc2sc3c(c2c1=O)CCCCC3	?	i	i	1e-09	0.9%
O=C1C(Cl)=C(N2CCOCC2)C(=O)N1c1ccccc1Cl	-3%[11.4 µM]	.	.	.	1.9%
O=C(Cn1nnc(-c2ccncc2)n1)N(C1CCCCC1)C1CCCCC1	.	i	i	1.4e-08	-1.2%
CC(C)C1Cc2c(C#N)c(N)n(C)c(=S)c2CO1 (stereo not drawn)	.	i	i	5.2e-09	.
CCCCNN	-6%[11.4 µM]	i	i	1e-09	-1.8%[11.5 µM]
CCOc1ccc(N(CC(=O)N2CCN(c3ccccc3)CC2)S(=O)(=O)c2c(C)noc2C)cc1	25%	.	.	.	1.7%
Cc1nc(N2CCOCC2)c2nc(-c3ccccc3)n(CCCN3CCOCC3)c2n1	4%	.	.	.	6.8%
CC(=O)c1ccc(OC2C=CC(c3ccc(Cl)cc3)OC2CO)cc1 (stereo not drawn)	2%[11.4 µM]	.	.	.	-0.2%[11.5 µM]
CCOC(=O)Cn1cc(-c2ccccc2)nn1	-4%	.	.	.	3.7%
COCCn1c(COc2ccc(C)cc2)nc2ccccc21	?	i	i	2e-09	-0.4%
Cc1ccc(-c2nnc(SCC(=O)O)n2N)cc1	0%	i	i	1e-09	-1.1%
c1csc(-c2cn3c(n2)SCC3)c1	-5%	.	.	.	0.1%
COC(=O)COc1nsnc1N1CCOCC1	-2%	i	i	2.8e-08	-1.0%
O=C(O)c1cc(N=Cc2ccccc2O)cc(C(=O)O)c1	?	i	i	2.8e-08	-2.6%[11.5 µM]
O=C(Nc1nnc(SCc2ccc(F)cc2)s1)c1ccco1	1%	i	i	1e-09	0.2%
Cc1c(C)c2cc(Cl)c(O)c(CN3CCCC(C)C3)c2oc1=O (stereo not drawn)	.	i	i	7.1e-09	.
COCCCNC(=O)c1cc(OC)c(OC)c(OC)c1	-2%	i	i	1e-09	-0.8%
O=C(COc1ccc(Cl)cc1)Nc1nc(-c2cccs2)cs1	?	i	i	2.8e-09	0.4%
Cc1cccc(-n2nnc(C(=O)NCc3ccccn3)c2N)c1	-1%	i	i	3.4e-08	1.1%
Cc1nc(NC(=O)CCCC(=O)Nc2nc(C)c(C)s2)sc1C	22%	i	i	3.2e-09	6.0%
Cc1cc(S(=O)(=O)N2CCN(c3ncccn3)CC2)ccc1-n1cnnn1	-4%	i	i	3e-09	-1.1%
COc1ccccc1NC(=O)c1nnn(CC(=O)Nc2cccc(SC)c2)c1N	-16%	i	i	1e-09	2.7%
COc1ccccc1CNC(=O)c1ccc(NS(C)(=O)=O)cc1	-3%	i	i	4e-08	-0.3%
COCCn1c(=O)c(C)nc2cnc(Oc3ccccc3)nc21	8%	i	i	2e-08	2.2%
COc1ccc2cc(C(c3nnnn3C3CCCCC3)N3CCCCCC3)c3nnnn3c2c1 (stereo not drawn)	24%	i	i	1e-09	0.2%

# Two neighbouring records already listed:
mol	TSHR agonist	Resorufin fluor	A488 fluor	A647 fluor	AID923
Cc1nc(NC(=O)CCCC(=O)Nc2nc(C)c(C)s2)sc1C	22%	i	i	3.2e-09	6.0%
Cc1cc(S(=O)(=O)N2CCN(c3ncccn3)CC2)ccc1-n1cnnn1	-4%	i	i	3e-09	-1.1%

# (list continues)
mol	TSHR agonist	Resorufin fluor	A488 fluor	A647 fluor	AID923
CN(C)CCNC(=O)Cc1c(C(=O)O)n(C)c2ccccc12	1%	i	i	1.8e-09	-0.2%
COc1ccc2c(=O)c(N3C(=O)c4ccccc4C3=O)coc2c1	-2%	i	i	2.4e-09	1.8%
COc1ccccc1N1CCN(C(=O)c2ccc(CS(=O)(=O)c3ccccc3OC)o2)CC1	?	i	i	1e-09	0.2%
Cc1cccc(CCNC(=O)C2CCC(CNc3c(N4CCCC4)c(=O)c3=O)CC2)c1 (stereo not drawn)	-3%	.	.	.	-5.1%
COCC(=O)N1CCC2(CCCN(Cc3ccccc3)C2)CC1	?	i	i	1.7e-09	3.2%
Cc1oc(-c2ccc(F)cc2)cc1-c1nn2c(-c3ccoc3C)nnc2s1	?	i	i	2.2e-09	-1.0%
N#Cc1c(NC(=O)C(F)(F)F)sc2c3c(=O)c4ccccc4c(=O)c=3oc3ccccc3c12	0%[11.4 µM]	i	i	1e-09	3.4%[11.5 µM]
O=C1c2ccccc2S(=O)(=O)N1CCOc1ccc(F)cc1	?	i	i	1e-09	0.5%
COc1ccc(C2C(C#N)=C(N)SC(N)=C2C#N)cc1OC	.	i	i	1.7e-08	.
CN(C(=O)C1CCCO1)c1nnc(-c2ccccn2)s1 (stereo not drawn)	-3%	i	i	2.2e-08	0.2%
CCN1C(=O)C2(/C(=C(\O)c3ccc4c(c3)OCCO4)C(=O)C(=O)N2CCCOC)c2ccccc21 (stereo not drawn)	1%	i	i	4e-09	-0.8%
Cc1cc(C(C)(C)C)c(O)c(C)c1CC1=NCCN1	11%[25.6 µM]	i	i	2.3e-09&5.6e-09&1.1e-09	1.2%
CCCCc1c(O)nc(SCC(=O)N2CCOCC2)n(-c2ccccc2C)c1=O	7%	i	i	7.8e-09	-1.5%
COC(=O)N1CCC2(CC1)CCN(C(c1ccccc1)c1ccccc1)CC2	3%	i	i	1e-09	-0.7%
CCCn1c(=N)n(CC(=O)c2cccs2)c2ccccc21	11%	.	.	.	-0.9%
COc1ccc(CN2CC(C(=O)NCCCN3CCN(C)CC3)CC2=O)cc1 (stereo not drawn)	-4%	i	i	6.8e-09	-1.1%
COc1cc(NC(=O)c2ccc(C)cc2)c(OC)cc1NC(=O)CN1CCOCC1	1%	i	i	1.8e-09	1.5%
COC(=O)c1cc(C)sc1NC(=O)CCCC(=O)O	4%	i	i	3.1e-08	-0.1%
CCOC(=O)N1CCN(C(=O)Cn2cc3c(n2)CCCC3)CC1	-3%	i	i	1e-09	0.4%
O=C(c1ccccc1)c1cccn1CC(=O)N1CCN(c2ccc(F)cc2)CC1	-4%[11.4 µM]	i	i	1e-09	-2.6%
Cc1cc(NC(=O)Cn2nnc3sc4c(c3c2=O)CCCC4)no1	8%	i	i	3.3e-08	2.1%
O=C(Nc1ccc2oc(-c3ccccc3Cl)nc2c1)c1ncn[nH]1	0%	i	i	8e-09	-0.1%
O=C(Nc1ccc(C2CCCCC2)cc1)C1CCCN(c2ncccn2)C1 (stereo not drawn)	0%	i	i	1e-09	2.3%
COc1ccc(NC(=O)c2cnc(C)cn2)cc1-n1cnnn1	9%	i	i	1e-09	0.9%
CC(=O)N1CCc2cc(S(=O)(=O)NC(C(=O)Nc3ccc4c(c3)OCCO4)C(C)C)ccc21 (stereo not drawn)	7%	i	i	1e-09	-0.1%
CC(=O)Nc1ccc(NC(=O)Cn2cc3c(n2)CCC(C)C3)cc1 (stereo not drawn)	-2%	i	i	1.8e-08	-1.2%
CC(C)Nc1oc(Cc2cccc3ccccc23)nc1C#N	23%	i	i	3.3e-09	1.9%
COc1ccc(COC(=O)N/N=C2/C[C@@H](O)[C@@H](O)[C@@H]3[C@@H]4C(=O)N(c5cccc(Oc6ccccc6)c5)C(=O)[C@H]4CC[C@@H]23)cc1	-7%[11.4 µM]	.	.	.	1.0%[11.5 µM]
CCC(OC(=O)CCc1nc2ccccc2[nH]c1=O)C(=O)c1ccccc1 (stereo not drawn)	15%	i	i	1e-09	-2.7%
COC(=O)C(C)Sc1nc2c(c(=O)n(C)c(=O)n2C)n1CCC(C)C (stereo not drawn)	.	i	i	1.9e-09	.
COc1ccc(-c2nnc(N(C)C(=O)c3cccnc3)s2)cc1	-1%	i	i	1e-09	-0.9%
Cn1c2ccccc2c2ncn(CCC3=CCCCC3)c(=O)c21	?	i	i	1e-09	1.4%
CCOc1ccc(NC(=O)CSc2nnc(C3CC3)n2N)cc1	1%	i	i	3.1e-08	-1.2%
Nn1c(-c2cccc(Br)c2)n[nH]c1=S	.	i	i	1.8e-09	-0.9%
CCN(C(=O)COc1ccccc1)c1nnc(-c2cccnc2)s1	-1%	i	i	3.2e-08	2.0%
CC(C)CC(OC(=O)c1cccs1)C(=O)NCc1ccco1 (stereo not drawn)	7%	i	i	5.4e-08	0.0%
CCOC(=O)c1nnn(-c2nc(OC)nc(N(C)C)n2)c1-c1ccccc1	20%	i	i	1.3e-08	0.5%
Cc1c(C(=O)N2CCC(C(N)=O)CC2)sc(N)c1C#N	-3%	.	.	.	-0.5%
O=C1CCCN1CN(C(=O)c1ccc2c(c1)OCO2)c1cccc(Cl)c1	2%	i	i	2.9e-08	0.0%
c1ccc(NN(Cc2cnccn2)c2ccccc2)cc1	9%[11.4 µM]	i	i	1e-09	4.6%[11.5 µM]
COc1ccc(O[C@H]2C=C[C@@H](c3ccccc3)O[C@@H]2CO/N=C(\C)CCN2CCc3nc(-c4ccccc4)c(-c4ccccc4)cc3C2)cc1	-8%[11.4 µM]	.	.	.	-4.3%[11.5 µM]
COc1cc(NC(=O)c2cc(-n3cnnc3)ccc2Cl)cc(OC)c1	.	i	i	1e-09	0.8%
O=C1CCC(=O)N1OCCOc1ccc2c(c1)CCC2	-8%	i	i	1.9e-08	-0.9%
CCOC(=O)CCc1c(C)c2c(C)nn(-c3ccccc3)c2[nH]c1=O	5%	.	.	.	1.6%
OCCN(CO)CO	0%[11.4 µM]	i	i	5.6e-08	2.3%[11.5 µM]
O=C(O)C[C@H](Cc1ccccc1)C(=O)O	-1%[11.4 µM]	i	i	4e-08	3.1%[11.5 µM]
NCCC1([N+](=O)[O-])CCNCC1	-1%[11.4 µM]	i	i	3.3e-08	0.0%[11.5 µM]
COc1ccccc1N1CCN(C(=O)c2ccc3c(=O)n(Cc4ccco4)c(=S)[nH]c3c2)CC1	-11%	i	i	1e-09	-1.8%
CCOc1ccc(-c2nc(CSCC(=O)N3CCN(c4cccc(OC)c4)CC3)c(C)o2)cc1	7%	.	.	.	1.4%
C=CCNC(=O)c1ccc2nccnc2c1	-2%	.	.	.	0.4%

# Going on with the list.
mol	TSHR agonist	Resorufin fluor	A488 fluor	A647 fluor	AID923
Cc1cc(C#N)c(C)n1-c1cc(C(F)(F)F)ccc1N1CCOCC1	?	i	i	7.7e-09	1.7%
CC(C)n1c(Nn2cnnc2)nc2ccccc21	?	i	i	2.2e-08	0.0%
C=CCc1c(C)[nH]c(=S)c(C#N)c1C	26%	i	i	1e-09	-0.2%
O=C1C=C(NCCNc2c(F)c(F)c(CO)c(F)c2F)CCC1	.	i	i	1e-09	.
O=C(NCc1ccc2c(c1)OCO2)c1ccc2snnc2c1	?	i	i	3e-08	-4.8%

# A portion of the library; the hit share may differ from the screen's.
